HSV replic up: HSV replication enhancement. HSV replication augmentation in cells, fold increase. maximum fold increase. actives 0.005% (n = 220,000);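 active = peak rise of 1.5-fold or more in the series; inconclusive = self-fluorescent or not available for retest; tested in PC3 cells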;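 also: first round at 10 µM; read as green reporter fluorescence; hits show the peak of a series up to 25 µM; 1 = signal of infected wells without compound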
RGS16-Gao: regulators of human RGS16-Galphao interaction. bead-based flow cytometry RGS16-Galphao binding, fluorescence; actives lie on both sides. binding response (% of control), % at 10 µM. O15492+P09471. actives 0.38% (n = 220,000);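 active = below 25% or above 175%, edge rows of some plates excepted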;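 also: Galphao activated by GDP with aluminum fluoride before binding; 100% = wells without compound and 0% = beads without RGS; some results beyond the cut were filed as inactive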
Target sequence (O15492 whole entry, looked up): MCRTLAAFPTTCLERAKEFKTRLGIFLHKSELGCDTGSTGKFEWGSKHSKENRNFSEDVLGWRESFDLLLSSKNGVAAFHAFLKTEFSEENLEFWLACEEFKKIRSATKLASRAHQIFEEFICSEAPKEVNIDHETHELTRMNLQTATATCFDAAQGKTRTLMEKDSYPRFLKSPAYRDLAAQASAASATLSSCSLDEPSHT
Target sequence (P09471 whole entry, looked up): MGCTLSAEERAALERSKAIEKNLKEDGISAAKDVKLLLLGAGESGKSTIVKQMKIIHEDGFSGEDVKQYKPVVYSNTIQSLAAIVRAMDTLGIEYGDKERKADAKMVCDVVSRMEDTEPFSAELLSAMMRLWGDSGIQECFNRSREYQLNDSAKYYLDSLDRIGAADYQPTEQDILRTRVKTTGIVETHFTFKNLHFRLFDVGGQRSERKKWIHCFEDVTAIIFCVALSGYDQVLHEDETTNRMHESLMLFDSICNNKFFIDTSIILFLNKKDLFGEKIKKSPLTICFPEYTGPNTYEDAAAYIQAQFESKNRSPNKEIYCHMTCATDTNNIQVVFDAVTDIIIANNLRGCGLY
INS promoter inh: TRM-6 insulin promoter activity inhibition | AID 1273 | TRM-6 cells (human fetal islet line), insulin promoter-eGFP reporter, imaging; reporter expression induced with tamoxifen | actives 0.9% (n = 130,000) | inhibition, % at 2 µM;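 active = inhibition above the mean plus 3 SD, with well images judged a real hit on visual review, cut at about 60% in these data, passing the limit was not always enough; inconclusive = inhibition over the cutoff but images rejected on review; inactive = inhibition not above the cutoff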
PKD1 kinase inh: blocks activity of human protein kinase D1 | Q15139 | PKD1 kinase fluorescence polarization assay | inhibition, %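 (about 10 µM by stock and volumes)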 | actives 0.056% (n = 200,000) | AID 797;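 active = inhibition of 50% or more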;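 also: controls were vehicle for no effect and a reference inhibitor for full effect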
GALR2 ag: GALR2 (human) receptor agonism; GALR2-expressing cells, agonist activation read-out; actives 0.48% (n = 140,000); O43603; activation, %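 (tested at 5 µM)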;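 active = above mean plus 3 SD of all compounds, about 5% in these data, not always enough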;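 also: 0% = vehicle buffer wells and 100% = reference agonist at full effect; tested in CHO reporter cells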
Target sequence (O43603 whole entry, looked up): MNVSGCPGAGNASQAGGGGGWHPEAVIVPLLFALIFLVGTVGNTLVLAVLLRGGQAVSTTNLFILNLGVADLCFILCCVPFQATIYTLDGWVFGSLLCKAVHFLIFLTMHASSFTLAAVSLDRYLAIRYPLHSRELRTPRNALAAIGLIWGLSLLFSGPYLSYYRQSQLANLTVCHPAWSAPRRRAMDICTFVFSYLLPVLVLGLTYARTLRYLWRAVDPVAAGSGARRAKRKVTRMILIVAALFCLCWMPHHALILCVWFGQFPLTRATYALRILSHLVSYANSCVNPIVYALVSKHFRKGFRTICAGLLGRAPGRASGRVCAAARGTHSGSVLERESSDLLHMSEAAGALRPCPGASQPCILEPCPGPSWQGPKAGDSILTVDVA
INS promoter inh cell count: recorded beside INS promoter inh, whose call it bears; normalized cell count, %; measured here: cell count, toxicity; reference of the scale not given here;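 cells exposed to compound for 48 h; stained nuclei by imaging scaled within each plate; lower means fewer cells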
HSV replic up primary fold: also measured in HSV replic up; calls as there; fold increase; compound at 10 µM; measured here: primary screen fold increase 10 uM; tested in PC3 cells;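 GFP signal in the first replicate; 1 = infected wells without compound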
* = called active by the depositor; i = inactive; u = inconclusive; x = no result given. The order is random. About 1.3% of those tested had a hit in this group.

SMILES	HSV replic up	HSV replic up primary fold	RGS16-Gao	INS promoter inh	INS promoter inh cell count	PKD1 kinase inh	GALR2 ag
Cc1c(C(=O)Nc2ccc(F)cc2)c2ccccn2c1CCc1ccncc1	u	x	101	x	x	-10	-0.7
CCOC(=O)c1c(NC(=O)C2CCCCC2C(=O)O)sc2c1CCCCC2 (configuration not stated)	i	0.98	93	-26	142	3	x
Nc1ccccc1C#CCCCCO	i	1.2	106	5	56	-8	-1.4
O=C(CSc1nnc(Cn2c(=O)sc3ccccc32)n1-c1ccccc1)NCC1CCCO1 (configuration not stated)	i	1.2	96	50	101	-1	-0.1
CCCn1ncc(CN2CCC(Cc3cccc(F)c3)(C(=O)OCC)CC2)c1C	i	1	95	x	x	-5	x
O=C1OCCC1Sc1nc2cc(Cl)ccc2s1 (configuration not stated)	i	1	106	13	115	-11	-0.9
CCCCNCCCOc1cccc(Cl)c1Cl	i	0.87	104	3	130	0	-0.1
O=C(NCCN=C1NS(=O)(=O)c2ccccc21)c1ccncc1	i	0.99	125	x	x	-1	-1.0
O=c1c2sc3ccccc3c2[nH]c(=S)n1CCN1CCOCC1	i	0.97	105	-9	106	1	x
CCCC(=O)Nc1ccc2c(c1)nc(CCNC(=O)c1ccccc1)n2C	i	1.1	96	4	100	-5	-1.0
CCN(c1ccccc1)S(=O)(=O)c1ccc(Cl)c(NC(=O)CN(C)C2CCN(C)CC2)c1	i	0.78	89	x	x	x	x
O=C(Cc1ccccc1)NNC(=S)NC(=O)c1cccnc1	i	0.96	111	x	x	x	x
COc1cccc(-c2csc(NC3OC(=O)c4c3ccc(OC)c4OC)n2)c1 (configuration not stated)	i	0.9	82	x	x	x	x
O=C(CCc1ccc(Oc2cc([N+](=O)[O-])cc([N+](=O)[O-])c2)cc1)Nc1cccc(Cl)c1	i	0.95	114	21	128	-11	-1.1
CN1C(=O)N(C)C2C1N(CN1CCCCC1)C(=O)N2CN1CCCCC1 (configuration not stated)	i	0.88	98	x	x	-6	-2.3
Cc1ccc(SCCC(=O)NCC2CCCO2)cc1 (configuration not stated)	i	0.89	100	33	85	-8	-1.3
COc1ccc(-n2nc([N+](=O)[O-])c(=NCCc3ccc(Cl)cc3)n2O)cc1	x	x	98	0	141	-4	-3.0
CCc1c(C)n([O-])c2c([n+]1=O)CCCCC2	i	0.89	103	-24	103	-2	-0.5
CCOC(=O)NC(=O)CSc1nc2ccc([N+](=O)[O-])cc2[nH]1	i	0.95	109	x	x	11	x
COc1ccccc1N1CCN(C(=O)c2oc3ccc(F)cc3c2C)CC1	i	0.85	53	45	111	-6	-1.7
C#C[C@]1(O)CC[C@H]2[C@@H]3CCc4cc(OC5CCCC5)ccc4[C@H]3CC[C@@]21C	i	0.71	94	x	x	x	x
O=C1CSC(=NC2CCCCC2)N1	i	1	100	-90	120	-2	0.3
COc1cccc(N(CC(=O)O)S(=O)(=O)c2ccccc2)c1	i	0.96	101	41	73	6	-1.8
O=C(CCN1C(=O)COc2ccccc21)NCc1cccs1	i	1.1	104	-54	166	9	-2.2
C/C(=N\NC(=O)C1CC1)c1ccc(N2CCOCC2)cc1	i	0.98	105	9	50	-10	x

A draw from above in order of heavy-atom count, low to high.
SMILES	HSV replic up	HSV replic up primary fold	RGS16-Gao	INS promoter inh	INS promoter inh cell count	PKD1 kinase inh	GALR2 ag
O=C1OCCC1Sc1nc2cc(Cl)ccc2s1 (configuration not stated)	i	1	106	13	115	-11	-0.9
O=C(Cc1ccccc1)NNC(=S)NC(=O)c1cccnc1	i	0.96	111	x	x	x	x
C#C[C@]1(O)CC[C@H]2[C@@H]3CCc4cc(OC5CCCC5)ccc4[C@H]3CC[C@@]21C	i	0.71	94	x	x	x	x
CCCn1ncc(CN2CCC(Cc3cccc(F)c3)(C(=O)OCC)CC2)c1C	i	1	95	x	x	-5	x

One compound at a time (already shown).
`COc1ccc(-n2nc([N+](=O)[O-])c(=NCCc3ccc(Cl)cc3)n2O)cc1` is listed as HSV replic up: x; HSV replic up primary fold: x; RGS16-Gao: 98; INS promoter inh: 0; INS promoter inh cell count: 141; PKD1 kinase inh: -4; GALR2 ag: -3.0
`CCCn1ncc(CN2CCC(Cc3cccc(F)c3)(C(=O)OCC)CC2)c1C` is listed as HSV replic up: i; HSV replic up primary fold: 1; RGS16-Gao: 95; INS promoter inh: x; INS promoter inh cell count: x; PKD1 kinase inh: -5; GALR2 ag: x
`COc1cccc(-c2csc(NC3OC(=O)c4c3ccc(OC)c4OC)n2)c1` (configuration not stated) is listed as HSV replic up: i; HSV replic up primary fold: 0.9; RGS16-Gao: 82; INS promoter inh: x; INS promoter inh cell count: x; PKD1 kinase inh: x; GALR2 ag: x

Back to the main list, repeating the 2 entries before the break.
SMILES	HSV replic up	HSV replic up primary fold	RGS16-Gao	INS promoter inh	INS promoter inh cell count	PKD1 kinase inh	GALR2 ag
O=C(CCN1C(=O)COc2ccccc21)NCc1cccs1	i	1.1	104	-54	166	9	-2.2
C/C(=N\NC(=O)C1CC1)c1ccc(N2CCOCC2)cc1	i	0.98	105	9	50	-10	x
COc1cc(OC)c(NC(=O)c2ccc(F)cc2)cc1Cl	i	0.96	102	x	x	2	x
Cc1cc(NC(=O)C2CCCCC2C(=O)O)no1 (configuration not stated)	i	0.86	106	0	124	-2	-0.7
COCCNS(=O)(=O)c1ccc(OCC(=O)OC)c(Cl)c1	i	0.94	95	9	63	0	-0.7
C[n+]1c2n(c3ccccc31)N=C(c1ccc(-c3ccccc3)cc1)CS2	i	0.76	111	x	x	0	x
O=C(NCC(=O)N1CCN(c2ncccn2)CC1)c1cccs1	i	0.92	104	-53	73	-4	-0.7
CN(C)c1nccc(NCc2ccccc2)c1C#N	i	1.1	103	x	x	5	x
O=C(NCCCN1CCOCC1)/C(=C/c1ccc(F)cc1)NC(=O)c1ccccc1	i	1.1	103	46	80	-7	x
CCOC(=O)C1=C(C)C(c2cccc(Oc3ccccc3)c2)NC(=S)N1 (configuration not stated)	i	0.87	98	x	x	-7	-0.9
CCN1CCN(c2ccc(S(=O)(=O)N3CCCC3)cn2)CC1	i	1	110	0	97	-1	x
Cn1cc(C(=O)N/N=C/C=C/c2ccccc2)ccc1=O	i	0.84	103	-3	115	-3	-1.5
CCOc1cc(C(=O)NC)cc(Br)c1OC	i	0.91	101	x	x	-1	x
COCC(=O)N(C)c1nnc(-c2ccccn2)s1	i	0.84	103	38	136	-8	0.9
COc1ccccc1-c1cc(C(=O)NCCN2CCOCC2)no1	i	0.88	100	x	x	-14	-0.8
CCC(=O)NCCCCCCCCCNC(=O)CC	i	0.89	99	-13	90	-20	-1.3
CN(C(=O)c1cccnc1)c1nnc(-c2ccccn2)s1	i	0.97	102	x	x	-10	-0.7
CC(=O)c1c(COC(=O)c2ccc(F)cc2)nc2ccccc2[n+]1[O-]	i	0.96	103	x	x	x	x
COC(=O)C1=C(C)N(C)C(=S)N(C)C1c1ccc(OC)cc1 (configuration not stated)	i	0.97	98	x	x	-3	x
COC(=O)c1ccc(NC(=O)CSc2nc3ncccc3[nH]2)cc1	i	1.1	124	x	x	x	x
O=C(Cn1nc(C(F)(F)F)c2c1CCC2)Nc1ccccc1C(F)(F)F	i	1	108	i	53	-3	-1.5
CCOC(=O)C1(Cc2cccc(F)c2)CCN(C(=O)c2cnc(C)cn2)CC1	i	1	119	x	x	-12	x
O=C(COc1ccc(Cl)cc1)NCc1nnc(SCC(=O)N2CCCC2)o1	i	1.2	100	-7	58	-4	x
CCOc1ccc(NC(=S)N(C)C)cc1	i	1	103	x	x	x	x
CSc1sc(C(=O)N(C)C)cc1S(=O)(=O)C(C)C	i	1.1	104	x	x	x	x
COc1ccc(NC2c3ccccc3C(=O)N2c2ccccn2)cc1Cl (configuration not stated)	i	0.95	101	x	x	-1	-1.0
CCN(CC)C(=O)CSc1nc2ccccc2c(=O)n1-c1ccccc1OC	i	0.94	100	-20	67	-14	-1.2
Additional records follow:
SMILES	HSV replic up	HSV replic up primary fold	RGS16-Gao	INS promoter inh	INS promoter inh cell count	PKD1 kinase inh	GALR2 ag
CCCc1nc2ccccc2n1Cc1ccccc1OC	i	1.1	103	x	x	-13	x
CC1CCN(C(=O)CSc2nnc(CNC(=O)c3ccco3)o2)CC1	i	1	106	-21	127	4	0.1
Cc1cccc(NC(=O)C(=O)NCc2ccccn2)c1	i	1	102	x	x	5	-1.9
Cc1c(C=O)cnn1CCC(=O)O	i	0.95	x	38	101	-10	-0.9
CCOc1ccc(CN2C(=O)c3ccccc3C2=O)cc1C(=O)Nc1nnc(SCC)s1	i	0.98	100	22	111	-5	-1.1
COCCN(C(=O)c1ccco1)c1nnc(-c2ccc(OC)c(OC)c2)s1	i	0.91	109	-69	131	2	-0.1
CCOC(=O)c1sc(N/N=C/c2ccccc2)nc1C	i	0.8	48	20	132	2	1.1
O=C(Nc1cc(S(=O)(=O)Nc2ccc(Cl)cc2)ccc1O)c1ccc(S(=O)(=O)N2CCCCCC2)cc1	i	1	98	x	x	-2	x
CCc1c(O)nc(SC2CC(=O)N(c3ccccc3)C2=O)[nH]c1=O (configuration not stated)	i	0.95	102	0	60	-2	-0.1
Cn1c(=O)[nH]c(=O)c2c1nc(N1CCOCC1)n2CC(=O)c1ccccc1	i	1	110	x	x	2	x
CCOC(=O)c1cc(CC)sc1/N=C/C1C(=O)CCCC1=O	i	0.88	99	x	x	1	x
CCOc1ccc2nc(N/C(N)=N/S(C)(=O)=O)nc(C)c2c1	i	1	97	x	x	x	x
CCc1ccc(N2CC(C(=O)NCc3ccco3)CC2=O)cc1 (configuration not stated)	i	0.98	94	-25	157	-4	-2.5
Cn1c(=O)c(=O)n(C)c2cc(S(=O)(=O)Nc3ccc(OC(F)(F)F)cc3)ccc21	i	0.76	104	-50	105	-11	-1.9
Cc1nn(Cc2ccccc2Cl)c(C)c1C(=O)NCCN1C(=O)S/C(=C\c2ccccc2)C1=O	i	0.83	104	-23	106	3	0.2
CC(C)C(=O)N1CCN(c2ccccc2NC(=O)c2ccc(C#N)cc2F)CC1	i	0.94	111	-43	124	-3	x
CCOC(=O)C1=C(Nc2ccc(Cl)cc2)OCC1=O	i	0.94	105	x	x	x	x
Cc1ccc(S(=O)(=O)N/N=C/c2cccc3nccnc23)cc1	i	1.1	100	x	x	x	x
CC(C)(C)c1ccc(C(=O)Nc2ccc(F)cc2)s1	i	0.88	101	x	x	x	x
CC1CCCC(NC(=O)COC(=O)Cc2ccc(Br)cc2)C1C (configuration not stated)	i	1	93	x	x	5	x
Cc1ccc2nc(NC(=O)CSc3nc4ccccc4o3)sc2c1	i	0.97	117	-7	118	-8	-1.1
Cc1cc(Cl)ccc1OCC(=O)NCCCn1ccnc1	i	0.99	91	0	81	10	-1.6
COc1ccc(/C=N/NC(=O)CNC(=O)C2COc3ccccc3O2)cc1OC (configuration not stated)	i	0.94	97	33	135	-1	-0.6
